# FGF22 binding: FGF22 (human) thermal shift binding. actives 1.5% (n = 340,000). recombinant FGF22 thermal shift, SYPRO orange fluorescence; percent of sucrose octasulfate shift, DMSO zero. calls only at 9.99 µM. AID 651658;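 active = melting point raised past a set limit in the mean and every replicate; inconclusive = no clear call; three in four hits are not shown here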
# Target sequence (Q9HCT0 whole entry, looked up): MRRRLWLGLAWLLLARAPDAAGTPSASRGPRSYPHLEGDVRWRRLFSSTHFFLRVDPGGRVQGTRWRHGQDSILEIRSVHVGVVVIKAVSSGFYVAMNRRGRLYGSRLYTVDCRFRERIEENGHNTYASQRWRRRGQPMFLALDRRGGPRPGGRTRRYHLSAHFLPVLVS
# Beta cell apopt: beta cell apoptosis inhibition; protection from apoptosis, % (concentration not given with the values); actives 0.8% (n = 300,000); INS-1E cytokine-induced death, ATP luminescence, 48 h; percent of positive-control rescue, neutral wells zero; AID 435005;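 active = all replicates at 75% or more, or half of them and the mean; inconclusive = half reach 75% but not the mean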;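 note: 0% = cytokine-treated negative control wells and 100% = positive control rescue; higher means more ATP so stronger rescue from cytokine killing; wells of about 40 µL received 100 nL stock; the first replicate is given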
# A1 inh: inhibitors of the anti-apoptotic protein A1, read as caspase activation; caspase activation, % (concentration not given with the values); actives 0.066% (n = 330,000); MEF A1-2A-BIM cells, Caspase-Glo 3/7 luminescence, 3 h; percent of clofoctol response, vehicle zero;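 active = over half of replicate activation scores above 10%, or exactly half above 10 with the replicate mean above 10; inconclusive = replicate mean below 10 yet half the replicates above 10; inactive = over half of replicates below 10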;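 note: wells of about 30 µL received 50 nL stock; many hits fall short of the cut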
# AF4-AF9 inh: inhibitors of human MLL-AF4/AF9 interaction | P42568 | AlphaScreen, biotin-AF4 peptide binding to FLAG-AF9 | inhibition, % at 10 µM | actives 0.47% (n = 350,000) | AID 651704;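 active = every replicate reaching a set inhibition limit, whatever the replicate mean, cut at about 25% in these data; inconclusive = mean inhibition reaches that limit but some replicates miss it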;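 note: 0% = plate neutral control median and 100% = total signal loss; the record names both 10 and 1 µM as test concentration; the first replicate is given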
# Target sequence (P42568 whole entry, looked up): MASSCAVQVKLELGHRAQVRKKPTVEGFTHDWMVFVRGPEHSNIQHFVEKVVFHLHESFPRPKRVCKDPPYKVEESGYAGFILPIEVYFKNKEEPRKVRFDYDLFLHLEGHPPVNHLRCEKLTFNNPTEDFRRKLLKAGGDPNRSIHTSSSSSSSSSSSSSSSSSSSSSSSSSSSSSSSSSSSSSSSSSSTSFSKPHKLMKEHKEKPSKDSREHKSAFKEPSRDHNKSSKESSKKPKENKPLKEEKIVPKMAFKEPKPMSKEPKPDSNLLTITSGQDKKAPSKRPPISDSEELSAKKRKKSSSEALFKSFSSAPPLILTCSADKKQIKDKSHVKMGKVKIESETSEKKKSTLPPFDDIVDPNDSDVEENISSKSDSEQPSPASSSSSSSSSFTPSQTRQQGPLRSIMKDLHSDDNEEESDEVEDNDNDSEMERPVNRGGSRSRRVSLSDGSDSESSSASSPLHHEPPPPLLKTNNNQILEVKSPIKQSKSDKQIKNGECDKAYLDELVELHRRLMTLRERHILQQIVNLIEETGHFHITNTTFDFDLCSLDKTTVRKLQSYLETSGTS
# Ecoli growth: E. coli growth inhibition; actives 0.21% (n = 330,000); OD600 absorbance (no concentration beside the values); Escherichia coli growth, OD600, 23 h; stronger effect = lower value; AID 1053175;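 active = OD600 absorbance below the run mean of sample wells minus 3.6 SD, in any replicate, cut at about 0.56 in these data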;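 note: stock transfer was 300 nL into about 60 µL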
# UCH37 inh: inhibitors of human deubiquitinating enzyme UCH37. actives 0.33% (n = 330,000). inhibition, % (no concentration beside the values). purified proteasome/UCH37, Ub-AMC cleavage fluorescence. AID 588478. Q9Y5K5;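 active = mean of two replicates above 20%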;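 note: 0% = compound-free wells with enzyme and 100% = wells lacking proteasome; stock transfer was 100 nL into about 20 µL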
# Target sequence (Q9Y5K5 whole entry, looked up): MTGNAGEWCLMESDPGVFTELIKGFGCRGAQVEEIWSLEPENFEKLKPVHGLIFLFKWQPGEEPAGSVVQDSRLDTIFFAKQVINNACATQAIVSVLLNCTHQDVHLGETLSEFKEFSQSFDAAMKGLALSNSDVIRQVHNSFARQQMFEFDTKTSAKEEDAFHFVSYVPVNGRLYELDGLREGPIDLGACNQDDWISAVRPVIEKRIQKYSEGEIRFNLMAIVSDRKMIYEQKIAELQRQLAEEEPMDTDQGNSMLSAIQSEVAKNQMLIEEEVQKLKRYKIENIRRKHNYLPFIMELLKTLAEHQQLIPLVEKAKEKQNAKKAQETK
#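 Material: human UCH37 enzyme supplied as purified proteasome complex. Measure: % inhibition of Ub-AMC cleavage fluorescence. Medium: pH 7.4 Tris-HCl (50 mM) with ovalbumin, ATP-MgCl2, DTT. Times: 30 min preincubation with enzyme, 25 min cleavage at room temperature. Detection: AMC fluorescence intensity at 355/460 nm.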
# Ecoli rRNA inh: inhibits bacterial ribosomal RNA function over humanized ribosomes. E. coli WT GFP vs humanized-ribosome RFP mutants, fluorescence, 24 h; stronger effect = lower value; DMSO median 0, no signal -100. GFP signal change (wild-type ribosome), % (concentration not given with the values). actives 1.6% (n = 350,000). AID 720706;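 active = significant combined selectivity score with lowered wild-type GFP, culture density cut under 30%, mutant RFP and density less affected; inactive = any of these conditions unmet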; note: one replicate is shown; some compounds called inactive have numbers as strong as hits
# T cruzi inh: T. cruzi replication inhibition; T. cruzi beta-gal in NIH3T3, luminescence, 90 h; inhibition, % (no concentration beside the values); actives 1.4% (n = 300,000); AID 1885;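 active = mean inhibition across valid replicates above about 55%, limit read from the data; inconclusive = mean below that limit but half or more replicates reach it; inactive = mean below it, under half of replicates reach it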;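 note: signal also drops with host cell toxicity which is not excluded here; 0% = plate median of DMSO wells and 100% = zero luminescence signal; higher percent means less beta-gal luminescence so fewer parasites; stock transfer was 50 nL into about 50 µL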
# Ecoli rRNA inh OD600: recorded beside Ecoli rRNA inh, whose call it bears; OD600 change, %; measured here: OD600 growth;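 optical density of the mix in the first replicate; 0 = DMSO median and -100 = no signal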
# Ecoli rRNA inh RFP: also measured in Ecoli rRNA inh; calls as there; RFP signal change, %; measured here: RFP humanized mutant strains;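 first replicate; 0 = DMSO median and -100 = no signal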
# Active calls of the source: *; i = inactive; ? = inconclusive; / = not tested or not shown; & = joins results of further samples.
structure,FGF22 binding,Beta cell apopt,A1 inh,AF4-AF9 inh,Ecoli growth,UCH37 inh,Ecoli rRNA inh,Ecoli rRNA inh OD600,Ecoli rRNA inh RFP,T cruzi inh
CC1CN(C(=O)c2ccc(NS(=O)(=O)c3ccc(C(C)(C)C)cc3)cc2)CC(C)O1 (centres undefined),i,/,/,1.3,0.72,4.4,2,1,-1.4,9
Cc1cc(C)n(-c2ccc(C(=O)Nc3nc4ccccc4s3)cc2)n1,/,4,-2.6,/,0.77,-11,/,/,/,17
COC(=O)C1CC(=O)N(c2ccc(C)cc2)C1 (centres undefined),i,5,0.0,-1.6,0.7,4.3,7,10,-2.9,-13
COc1ccc(NC2CCCN(C(=O)c3cccc(C(F)(F)F)c3)C2)cc1OC (centres undefined),i,0,-0.1,10,0.72,1.8,3,-2,-0.2,10
COC(=O)c1ccc(Cn2nc(C(F)(F)F)cc2C)cc1,/,4,0.6,/,0.72,-0.1,/,/,/,-18
CC(C)CNCC1OCc2ccccc2CO1,i,0,-0.2,2.4,0.68,0.7,-5,2,5.8,-9
CCCCN1C(=O)C(=Nc2cccc3cnccc23)c2ccccc21,i,-2,0.6,-3.8,0.69,-33,-11,-10,-3.0,15
Cc1nn(-c2cc(N3CCOCC3)ccc2[N+](=O)[O-])c(=O)c2ccccc12,/,0,-0.5,/,0.69,10,3,4,0.3,9
CC(C)NC(=O)Nc1ccc2c(c1)C(=O)N([C@H](C)CO)C[C@H](C)[C@@H](CN(C)S(=O)(=O)c1cccs1)O2,i,6,0.8,-1.2,/,2.6,0&7,6&20,1.0&16,/
CC1CCCN(C(C(=O)Nc2ccc(C(C)C)cc2)c2ccc3c(c2)OCO3)C1 (centres undefined),i,/,-0.5,0.2,0.74,6.6,-8,-24,-4.8,44
COc1ccc(-c2cc(C(F)F)nc(-n3nc(C)cc3C)n2)cc1,/,1,-0.5,/,0.75,-44,/,/,/,-27
CCN(CC)S(=O)(=O)c1ccc(OC)c(-n2cnnn2)c1,i,-6,0.4,-0.8,0.65,4.5,9,6,5.0,-2
O=C(NCc1cccc(CNC(=O)c2ccco2)c1)c1ccco1,i,2,-0.9,5.1,0.69,0.7,-3,-5,-10.0,-19
O=C(COC(=O)c1ccc(S(=O)(=O)N2CCc3ccccc3C2)cc1)NC(=O)NCc1ccco1,/,-8,-0.6,/,0.74,0.7,/,/,/,-3
CCCCOc1cccc(C(=O)N(Cc2ccco2)C2CCS(=O)(=O)C2)c1 (centres undefined),/,-4,-0.3,/,0.66,-3.0,/,/,/,-13
CN(CC1COc2ccccc2O1)C(=S)NC1CCCCC1 (centres undefined),i,-9,-0.9,/,0.7,5.1,-28,-27,-6.1,1
C=CCNC(=S)NS(=O)(=O)c1cccs1,i,-4,0.3,-3.4,0.65,-1.6,22,18,6.6,-6
CCCN1CCN(CCCNC(=O)c2cc3c(=O)n(C)c4ccccc4c3n2C)CC1,i,2,0.2,-3.2,0.73,-1.4,-8,-2,0.8,0
CC(=O)Nc1ccc(Nc2ccc([N+](=O)[O-])cn2)cc1,i,2,0.0,-3.8,0.68,12,2,-5,-7.8,-6
O=C(N/N=C/c1ccco1)c1cccc(N2CCCC2=O)c1,i,5,-2.9,-1.7,/,/,-2,-15,-5.8,16
CCCn1c(N)c(N(CCOC)C(=O)c2ccc(-c3ccccc3)cc2)c(=O)[nH]c1=O,i,5,-0.8,-12,0.63,0.7,2,2,-3.4,/
Cc1noc(C)c1S(=O)(=O)N(CC(=O)NCc1ccc(F)cc1)c1ccc(C(C)C)cc1,i,-2,-0.4,-3.2,0.7,3.0,-3,7,-1.9,36
Cc1nn(-c2ccccc2)c(C)c1N,i,-5,0.1,4.5,0.67,0.9,13,19,2.4,-3
COc1ccccc1CNC(=O)C1CCCN(S(=O)(=O)c2cnc[nH]2)C1 (centres undefined),i,-7,-0.4,0.9,0.75,2.5,6,19,5.7,/
COc1ccc(C(=O)Nc2ccc(S(=O)(=O)N3CCN(C)CC3)cc2)cc1[N+](=O)[O-],i,/,1.1,-0.9,0.71,7.3,1,-2,-0.4,7

structure,FGF22 binding,Beta cell apopt,A1 inh,AF4-AF9 inh,Ecoli growth,UCH37 inh,Ecoli rRNA inh,Ecoli rRNA inh OD600,Ecoli rRNA inh RFP,T cruzi inh
CN(C)S(=O)(=O)c1cccc(NC(=O)COC(=O)CNC(=O)c2ccccc2F)c1,i,4,-0.2,2.2,0.67,1.0,7,-2,-5.4,-2
CC12CC3CC(C)(C1)CC(C(=O)NC1=NCCS1)(C3)C2,/,-2,-0.4,/,0.67,4.9,/,/,/,4
Cc1noc(/C=C/N(C)C)c1S(=O)(=O)N(C)Cc1ccc(F)cc1,i,19,-0.2,2.6,0.68,7.3,6,10,-2.9,-9
CC1(C)CC(NS(=O)(=O)c2ccccc2)CC(C)(C)N1,/,3,0.1,/,0.74,0.4,/,/,/,-24
COC(=O)c1scc(S(C)(=O)=O)c1-n1cccc1,i,-4,0.3,-1.3,0.66,6.8,4,7,0.4,-11
CC1=CC(C)C(C(=O)O)C(C(=O)O)C1 (centres undefined),i,-6,1.5,1.7,0.7,1.9,16,13,-8.8,-10
CCOC(=O)c1c(NC(=O)CSc2nc3ccccc3[nH]2)sc2c1CC(C)(C)NC2(C)C,i,5,-0.4,18,0.68,0.2,-2,-2,0.2,42
CCOC(=O)C1=C(C)N2C(=C(C#N)[C@@H]1c1ccc(C(=O)OC)cc1)SC[C@@]2(O)C(C)(C)C,/,25,-0.2,/,0.73,0.9,/,/,/,32
COc1cc2c(cc1OC)C(C)N(C(=O)c1nccnc1C(=O)O)CC2 (centres undefined),i,-3,0.0,3.1,0.67,-8.8,21,10,2.5,3
COC(=O)C1C2C=CC3(CN(C4CCCC4)C(=O)C13)O2 (centres undefined),/,1,0.4,/,0.64,0.0,/,/,/,1
Cn1c(NCc2ccc(Cl)cc2)nc2ccccc21,i,/,0.8,-1.3,0.66,-0.1,-15,-9,-0.7,-13
COc1ccc(/C=C/c2c([N+](=O)[O-])c(=O)n(C)c(=O)n2C)c(OC)c1OC,/,/,-0.3,-1.6,0.64,8.0,3,-3,-0.7,-6
CN(c1ccccc1)S(=O)(=O)c1cc(C(=O)OCC(=O)c2c(N)n(C)c(=O)n(C)c2=O)ccc1Cl,i,/,/,1.3,0.67,2.0,/,/,/,/
C=CCN1C(=O)N(c2ccccc2)C(=O)C1CC(=O)Nc1ccc(OC)cc1 (centres undefined),i,-2,-0.2,6.5,0.64,2.2,-2,-4,-2.0,3
Cn1nnnc1SCC(=O)Nc1cccc(S(=O)(=O)N2CCCC2)c1,i,-1,0.9,2.8,0.68,1.7,-3,4,-2.8,3
Cc1ccc(C)c(CN2C(=O)CSc3ccc(C(=O)NCC(C)CN4CCC(C)CC4)cc32)c1 (centres undefined),i,-5,-0.2,-0.5,0.7,3.5,8,19,-0.8,12
NC(N)=NS(=O)(=O)c1ccc(NC(=S)Nc2ccc(F)cc2)cc1,i,-4,-0.2,-2.0,0.68,2.2,6,13,-0.4,5
CN(C)Cc1ccccc1Sc1ccccc1Br,/,-6,0.9,/,0.63,0.9,/,/,/,5
COc1cccc(CNC(=O)C2CCCN(c3cnccn3)C2)c1 (centres undefined),i,-2,0.5,0.8,0.69,-7.6,4,7,0.3,2
Cn1c(C(=O)NCc2ccc3c(c2)OCO3)cc2sccc21,/,-4,0.5,/,0.65,3.5,/,/,/,1
Cc1ccccc1NC(=O)CN1C(=O)S/C(=C\c2ccc(-c3cc(C(=O)O)ccc3C)o2)C1=O,i,/,/,-1.3,0.77,2.5,-5,-4,1.1,-4
CC(C)CCN(C)C1CCN(S(=O)(=O)c2ccc(F)cc2)CC1,i,-3,-0.1,-2.3,0.72,8.9,6,5,0.2,23
N=C(CC1CC(=O)NC(=O)C1)C1=C(O)CCCC1=O,/,-7,0.0,/,0.66,1.1,/,/,/,-3
Cc1cc(C)n2ncnc2n1,/,-2,-0.2,/,0.68,3.0,/,/,/,10
O=C(NCCCN1CCCC1=O)c1ccc(CNS(=O)(=O)c2ccc(F)cc2)cc1,/,0,0.1,/,0.7,-0.6,/,/,/,-2

# Entries of single compounds as entered above. Screens in order: FGF22 binding, Beta cell apopt, A1 inh, AF4-AF9 inh, Ecoli growth, UCH37 inh, Ecoli rRNA inh, Ecoli rRNA inh OD600, Ecoli rRNA inh RFP, T cruzi inh
# COc1ccc(C(=O)Nc2ccc(S(=O)(=O)N3CCN(C)CC3)cc2)cc1[N+](=O)[O-] reads i, /, 1.1, -0.9, 0.71, 7.3, 1, -2, -0.4, 7
# Cc1cc(C)n(-c2ccc(C(=O)Nc3nc4ccccc4s3)cc2)n1 reads /, 4, -2.6, /, 0.77, -11, /, /, /, 17

# 3 entries drawn at random from the list so far:
structure,FGF22 binding,Beta cell apopt,A1 inh,AF4-AF9 inh,Ecoli growth,UCH37 inh,Ecoli rRNA inh,Ecoli rRNA inh OD600,Ecoli rRNA inh RFP,T cruzi inh
Cc1ccc(C)c(CN2C(=O)CSc3ccc(C(=O)NCC(C)CN4CCC(C)CC4)cc32)c1 (centres undefined),i,-5,-0.2,-0.5,0.7,3.5,8,19,-0.8,12
COc1cccc(CNC(=O)C2CCCN(c3cnccn3)C2)c1 (centres undefined),i,-2,0.5,0.8,0.69,-7.6,4,7,0.3,2
N=C(CC1CC(=O)NC(=O)C1)C1=C(O)CCCC1=O,/,-7,0.0,/,0.66,1.1,/,/,/,-3

# (list continues)
structure,FGF22 binding,Beta cell apopt,A1 inh,AF4-AF9 inh,Ecoli growth,UCH37 inh,Ecoli rRNA inh,Ecoli rRNA inh OD600,Ecoli rRNA inh RFP,T cruzi inh
O=C1CCN(C(=O)/C=C/c2ccccc2)c2ccccc21,i,-2,-1.4,4.2,0.6,4.4,4,5,2.3,-15
COC(=O)c1ccc2c(=O)n(NC(=O)C(c3ccccc3)c3ccccc3)c(=S)[nH]c2c1,/,5,0.6,/,0.72,1.2,/,/,/,-12
CCOC(=O)N1CCC(c2cc(=O)n3[nH]c(-c4ccccc4)cc3n2)CC1,i,0,-0.2,-14,0.73,-0.4,13,14,3.8,1
O=C(O)C1CCCCC1C(=O)NCCc1cccc(Cl)c1 (centres undefined),/,-7,-0.2,/,0.62,5.9,/,/,/,-4
O=C(COC(=O)c1ccc(Cl)nc1)NNC(=O)c1ccc(Br)cc1,i,2,0.2,-0.5,0.65,7.2,/,/,/,/
Cc1ccccc1OCC(=O)Nc1ccc2[nH]ncc2c1,i,-8,0.1,-14,0.61,4.3,-21*,-16*,-1.7*,2
CC(NC(=O)c1ccccc1Cl)c1ccc(-n2ccnc2)cc1 (centres undefined),i,4,?,-0.7,0.73,0.9,14,12,-1.5,0
Cc1cccc(NC(=O)NCc2ccc3c(c2)cc(C)n3C)c1,i,-8,0.6,8.7,0.75,2.0,-21,16,29,52

# An excerpt; rates above refer to the full screens.
